# High-throughput results: PubChem BioAssay, Fisher Drug Discovery Resource Center
# NPYLR7 agonist = activates Aedes aegypti NPYLR7 receptor; activation, % at 10 µM; AID 1259423; HEK293T NPYLR7/Galpha15, GCaMP6s calcium fluorescence; hit rate 0.15% among 270,000; in the data active = activation above about 40%;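 note: 0% = vehicle and 100% = reference agonist at the receptor; some compounds past the cut are filed as inactive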
# NPYLR7 agonist max-min = recorded beside NPYLR7 agonist, whose call it bears; activation, %; measured here: Max-Min RFU normalised activation; some inactives read as strong as hits;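 span of the calcium signal over five minutes; 0% = vehicle and 100% = native peptide agonist; compound fluorescence can raise it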
# * hit, by the source's call; & = joins results of further samples.
SMILES,NPYLR7 agonist,NPYLR7 agonist max-min
CC(C)c1cc(Oc2ccccc2F)nc(SCc2ccc(C(F)(F)F)cc2)n1,22,10
Cc1occc1C(=O)N1CCCC1C(=O)Nc1ccccc1Oc1cccnc1 (stereo not given),4,1
CC(Sc1nc(N)nc2nc[nH]c12)C(=O)NCCn1cccc1 (stereo not given),4,4
C=CCN(Cc1csc(COc2ccccc2C(C)C)n1)C(=O)COC,4,6
Cc1cc(C)cc(-c2nc3ccccn3c2NC(=O)C(C)Cl)c1 (stereo not given),1,8
CCc1nc2ccc(C(=O)N3CCN(S(=O)(=O)CC)CC3)cn2c1N(C=O)Cc1ccc(OC)cc1,20,19
Cc1cccnc1NC(=O)C(C)(C)n1nc(-c2ccccc2)ccc1=O,-2,-6
Cc1ccc(C)c(C2C3C(=O)CC(C)(C)CC3=Nc3nc(-c4cccnc4)nn32)c1 (stereo not given),6,12
COc1cccc(NC(=O)N2CCc3nc(NCc4cccc(Oc5ccccc5)c4)ncc3C2)c1,-3,-7
CC1CN(c2cc(Cl)nc(SCC(=O)NCCc3ccccn3)n2)CCN1C(=O)NC1CCCCC1 (stereo not given),-10,-3
COc1ccc(-c2nc(CN3CCCCC3c3nccs3)c(C)o2)c(OC)c1 (stereo not given),5,2
Cc1noc(C)c1C(=O)NCC[C@@H]1C[C@@H]2C=C[C@H]1C2,17,4
CCC(CC)C(=O)Nc1ccc(-c2cccc(-c3ccc(OC)cc3)n2)cc1,0,-1
COc1ccc(CCN(C)S(=O)(=O)c2ccc(OC)c(N3CCN(S(=O)(=O)c4ccc(OC)c(OC)c4)CC3)c2)cc1OC,6,1
CCC(=O)c1c(O)cc(O)cc1O,18,14

# One compound at a time (already shown). Order of values: NPYLR7 agonist, NPYLR7 agonist max-min
# `CCc1nc2ccc(C(=O)N3CCN(S(=O)(=O)CC)CC3)cn2c1N(C=O)Cc1ccc(OC)cc1` as listed: 20, 19
# `Cc1cc(C)cc(-c2nc3ccccn3c2NC(=O)C(C)Cl)c1` (stereo not given) as listed: 1, 8

# The listing continues:
SMILES,NPYLR7 agonist,NPYLR7 agonist max-min
O=C(NCCC1COc2ccccc2O1)c1cn(Cc2c(F)cccc2F)nn1 (stereo not given),2,-4
COc1ccc(-c2ccc(CCC(=O)O)[nH]2)cc1,19,12
Cc1cc(N2CCCCC2)nc(NCCNC(=O)Nc2ccc(F)cc2F)n1,-1,-3
CN(CC(=O)N1CCNC1=O)Cc1ccc(Br)s1,13,15
COC(=O)C1CC2(CCN(Cc3ccc(C(N)=O)cc3)CC2)c2ccccc21 (stereo not given),8,8
COc1cccc(NC(=O)Nc2cnn(CC(O)CN(C)OC)c2)c1 (stereo not given),0,21
CCOC(=O)c1cc(-c2ccc(N3CCN(C(=O)c4ccccc4OC(C)=O)CC3)cc2)n(-c2ccccn2)n1,7,2
O=C(Cc1csc(-c2ccccc2)n1)NCc1cccnc1-n1ccnc1,-2,-3
Ic1ccc(Nc2nc(NC3CCCCC3)nc(N3CCOCC3)n2)cc1,-1,-2
Cc1cccc(CN(CC(O)COc2ccc(Cl)cc2)CC2CCCO2)c1 (stereo not given),-2,6
CC(=O)NC(Cc1ccccc1F)C(=O)N1CCN(Cc2cccc(-c3noc(-c4cccs4)n3)c2)CC1 (stereo not given),22,15
O=S(=O)(c1cccc(-c2nn(CN3CCc4ccccc4C3)c(=S)o2)c1)N1CCCCC1,2,-1
CC(C)(C)c1ccc(-c2cc(=O)c3cc(NC(=O)c4ccco4)ccc3o2)cc1,-4,-2
Cc1ccc2scc(N3CCOCC3)c(=O)c2c1,3,1
Clc1ccc2c(NCc3ccccc3)nc(-c3ccco3)nc2c1,4,17
Cc1ccc(Oc2ccccc2NC(=O)C2CCC(=O)N2)cc1 (stereo not given),6,5
CCOc1ccc(Br)cc1S(=O)(=O)NC1=NCCCCC1,-6,-5
CC1Oc2ccccc2OC1C(=O)NCCOc1ccc2ccccc2c1 (stereo not given),7,1
COCCn1nc(C)c(CNC(=O)NC2CCCCC2(C)C)c1C (stereo not given),4,2
C=CCN(Cc1cccs1)C(=O)C(C)N1CCc2cncnc2C1 (stereo not given),3,2
Cc1cc(C)nc(N/N=C\c2ccc([N+](=O)[O-])cc2)n1,-2,-10
O=C(CSc1ccc(Cl)cc1)NNC(=O)CC1Sc2ccccc2NC1=O (stereo not given),2,0
COc1ccc(-n2c(SCCCC(=O)N3CCN(C(c4ccccc4)c4ccccc4)CC3)nnc2-c2ccccc2)cc1,17,19
CC(C)CC(=O)NC(C(=O)N1CCCCC1)C1CCN(S(=O)(=O)C(C)C)CC1 (stereo not given),16,17
O=C(Cn1nc2c(c1NC(=O)CSCc1ccccc1)CSC2)NCc1ccco1,-8,-1
COCCCN(CC(=O)N(CCc1c[nH]c2ccccc12)Cc1ccc(Cl)c(Cl)c1)C(=O)c1cccc(Br)c1,19,18
O[C@@H]1C[C@H]2CN(Cc3cc(Cl)ccc3C(F)(F)F)C[C@H]2C[C@@H]1O,17,4
O=C(CSCCOc1ccc(Cl)cc1)NC1CCCc2ccccc21 (stereo not given),-9,-13
COc1cc(Cl)c(S(=O)(=O)n2ccnc2C(C)C)cc1Cl,-2,-1
Cc1cc2oc(=O)c(C)c(C)c2c2c1CC(C)O2 (stereo not given),3,9
CC(C)Nc1nnc(SCC(=O)Nc2cccc3c2C(=O)c2ccccc2C3=O)s1,-1,1
O=C(O)CCC(=O)Nc1ccc(N=Cc2ccc([N+](=O)[O-])cc2)cc1,3,-2
Cn1c(=O)n(Cc2ccc(C(N)=O)cc2)c2ccccc21,2,1
CC(OCC1CCCO1)C(=O)NS(=O)(=O)c1ccc2c(c1)CCCC2 (stereo not given),5,4
CN(Cc1ccc(N2CCOCC2)cc1)C(=O)c1ccc[nH]c1=O,2,-1
Cc1cnc(CN(C)C(=O)[C@@]23CNC[C@@H]2CN(Cc2ccccc2)C3)[nH]1,-4,-5
CC(C)CN(Cc1ccccn1)C(=O)[C@@H](N)Cc1ccccc1,4,2
Cc1cc(C)cc(NC(=O)CSc2nc(=O)n(Cc3ccncc3)c3c2CCCC3)c1,-1,0
COCCCN(Cc1ccccc1C)Cc1cccn1Cc1cccc(C(F)(F)F)c1,-3,-2
CCc1noc(C)c1C(=O)NC1CCN(C(C)c2ccccc2)C1 (stereo not given),-1,-1
CN1CC2(CCN(C(=O)c3cccnc3N(C)C3CCCCC3)C2)OC1=O (stereo not given),5,2
COc1ccccc1Cn1c(=O)sc2ccccc21,4,4
C[C@@H]1CN(C(=O)Cn2c(-c3ccco3)nc(-c3ccccc3)c2-c2ccccc2)C[C@H](C)O1,16,8
Cc1c(C(=O)NCc2cccnc2-n2ccnc2)nnn1Cc1ccccc1,12,-2
Cc1c(C)n2c3c(=O)n(C)c(=O)n(C)c3nc2n1-c1ccccc1Cl,0,13
COc1ccc(C(=O)NCCc2nc(C)c(C)s2)cc1OC1CCN(C(C)=O)CC1,2,0
O=C(c1ccccc1F)N1CCN(CCCn2cncn2)CC1,-1,-2
COc1ccc(NC(=O)C(C)(CC(=O)O)C2CCCCC2)cc1CO (stereo not given),3,-2
CN(C)c1ncnc2c1cc(C(=O)O)n2C,7,1
CCc1cccc2c(C(CC(=O)NCCc3ccccc3)c3ccc(Cl)cc3)c[nH]c12 (stereo not given),-2,-1
O=C(c1cn(CCCc2ccccc2)nn1)N1CCCCC1c1nc2ccc(F)cc2[nH]1 (stereo not given),13,5
O=C(C1CCC1)N(Cc1cccc(C(F)(F)F)c1)CC1CC(c2cccc(F)c2)=NO1 (stereo not given),21,16
[O-][N+]1=C2CCC/C(=N/O)C2(O)C2CCCCC21N1CCOCC1 (stereo not given),-9,-11
CCOc1ccc(Cc2nnc(NC3CCCCC3)[nH]c2=O)cc1,10,6
C=CCNc1nc2c(s1)CCCC2,8,20
Cc1ccc(CNC(=O)Cn2cc(C(=O)N3CCOCC3)c(=O)c3ccc(C)nc32)cc1,13,8
C=CCCOC(=O)N1CCC(OC(=O)NCC)c2ccccc2N(C)C(=O)C1 (stereo not given),5,19
CCOC(=O)c1c(C)nn(-c2ccc(C(=O)NCc3cccc(F)c3)cc2)c1C,-6,-9
C=C(C)Cn1c(=O)c2c(nc3n(-c4ccc(C)cc4C)c(C)c(C)n23)n(C)c1=O,-2,8
CC(=O)OCC1=C(C(=O)O)N2C(=O)[C@@H](NC(=O)Cc3cccs3)[C@H]2SC1,10&-5&-1&8,2&-13&0&-6
# Further structures follow:
SMILES,NPYLR7 agonist,NPYLR7 agonist max-min
Cc1ccccc1-n1c(C)nnc1SCc1ccc(C(=O)NCc2ccncc2)cc1,18,18
C=CCOCC(O)CN(CCC)Cc1c(-c2ccccc2)noc1N(C)Cc1ccccc1 (stereo not given),8,7
COC(=O)c1cn(CN(Cc2cccc(C)c2)C2CC2)nn1,6,3
CCS(=O)(=O)c1ccc2oc(-c3ccc(N)c(C)c3)nc2c1,-1,-2
COCCNC(=O)c1ccc(OC2CCN(Cc3cnc(SC)nc3)CC2)c(Cl)c1,4,1
O=C(c1cc([N+](=O)[O-])ccc1Cl)N1CCN(C(=O)c2cc([N+](=O)[O-])ccc2Cl)CC1,1,4
CC1c2cc(F)cc(F)c2CCN1C(=O)CNC(=O)c1cccc(Br)c1 (stereo not given),-3,47
Cc1ccc(NC(=O)CCS(=O)(=O)C2CCCC2)cc1,2,1
c1cc2c(c(-c3cc(N4CCCCC4)ncn3)c1)CCNC2,8,3
C=CCn1c(SCCCC#N)nc2cc(Cl)ccc2c1=O,3,3
CN(C)c1c(N)n(C)c(=O)[nH]c1=O,3,9
COc1nc(-c2ccc(Cl)c(Cl)c2)n(-c2ccc(NC(=O)c3ccc(Cl)cc3Cl)cc2)n1,15,20
CC1CCC(NC(=O)CNC(=O)c2ccc3ccccc3c2)CC1 (stereo not given),7,7
O=C(N1C[C@H]2CC[C@@H](C1)N2)C1(Oc2ccc(Cl)cc2)CCNCC1,1,-6
Cc1ccc(C)c(COc2coc(CN3CCCc4ccccc43)cc2=O)c1,5,5
CCc1nc2ccc(C(=O)N3CCN(c4ccccc4)CC3)cn2c1N(C)Cc1nccn1C,-6,-10
Cc1ccc(S(=O)(=O)N2CCN(c3cc(Oc4ccc(F)c(Cl)c4)ncn3)CC2)cc1,6,9
CC(C)n1c(O)c(N=NC(=O)Cc2csc(N3CCOCC3)n2)c2ccccc21,1,-7
CCC(C)NC(N)=NCc1ccc(-c2ccc3c(c2)CCCO3)cc1 (stereo not given),0,5
Cc1ccc(C=C2N=C(c3ccccc3F)OC2=O)o1,-7,-9
COc1ccccc1NC(=O)c1c(NC(=O)C(C)C)sc2c1CCCC2,-11,-14
CSc1ccccc1NC(=O)CCC(=O)N(C)C(C)c1ccon1 (stereo not given),7,17
Cn1c(=O)[nH]c(=O)c2c1nc(N1CCN(Cc3ccccc3)CC1)n2Cc1ccc(Cl)c(Cl)c1,-2,66
Cc1cccc(-n2nc(-c3ccco3)cc2C(=O)N2CCN(c3cccc(C(F)(F)F)c3)CC2)c1,16,19
CCCCN(CC)c1cn[nH]c(=O)c1Cl,4,8
Cc1ccc(NC(=O)C(C2CCCC2)N2CCN(C(=O)c3cccc(Cl)c3)CC2)cc1F (stereo not given),-3,-3
COC(=O)Cc1csc(N=Cc2c(O)[nH]c(=O)[nH]c2=O)n1,7,6
COC(C(=O)Nc1ccnn1C1CCN(C(=O)CC2CCCC2)CC1)c1ccccc1 (stereo not given),1,-1
COCCN(Cc1cnn(C)c1)C(=O)c1ccc(C(C)(C)C)cc1,2,-7
CC(C)(C)c1ccc(C(=O)N(Cc2ccc(OS(=O)(=O)c3ccc(F)cc3)cc2)Cc2ccco2)cc1,8,16

# Copied from the entries so far for reference:
SMILES,NPYLR7 agonist,NPYLR7 agonist max-min
Cc1cccc(-n2nc(-c3ccco3)cc2C(=O)N2CCN(c3cccc(C(F)(F)F)c3)CC2)c1,16,19
CCCCN(CC)c1cn[nH]c(=O)c1Cl,4,8
Cc1ccc(NC(=O)C(C2CCCC2)N2CCN(C(=O)c3cccc(Cl)c3)CC2)cc1F (stereo not given),-3,-3
COC(=O)Cc1csc(N=Cc2c(O)[nH]c(=O)[nH]c2=O)n1,7,6
COC(C(=O)Nc1ccnn1C1CCN(C(=O)CC2CCCC2)CC1)c1ccccc1 (stereo not given),1,-1
COCCN(Cc1cnn(C)c1)C(=O)c1ccc(C(C)(C)C)cc1,2,-7
CC(C)(C)c1ccc(C(=O)N(Cc2ccc(OS(=O)(=O)c3ccc(F)cc3)cc2)Cc2ccco2)cc1,8,16

# Continued:
SMILES,NPYLR7 agonist,NPYLR7 agonist max-min
Cc1cc(N2CCOCC2)nc(Nc2ccc(NC(=O)COc3ccccc3)cc2)n1,12,5
CC1=CC[C@@H]2CN(C(=O)Cc3c(C)nc(C)[nH]c3=O)C[C@@H]2C1,3,-3
CCCCCCCC(=O)N1CCN(c2nc(C(C)C)nc3sc4c(c23)CCCC4)CC1,-6,-3
O=C(NCc1n[nH]c(=S)n1C1CC1)c1noc2c1CCCC2,0,-8
CCc1ccc(NS(=O)(=O)c2cc(OC)ccc2OC)cc1,1,-2
Cn1c(=O)c2c(ncn2Cc2ccc(C(C)(C)C)cc2)n(C)c1=O,-5,-6
CN(C)C(CNC(=O)CCc1ccccc1)c1ccccc1 (stereo not given),0,-1
Cc1ccc(S(=O)(=O)Nc2ccc(-n3cccn3)nc2)cc1C(=O)O,2,4
Cc1ccc(-c2ccnc(NC(CC(C)C)c3ncnn3C)n2)c(C)n1 (stereo not given),-2,-6
Cc1ccc(Cl)cc1NC(=O)CCN1C(=O)c2ccccc2C1=O,-7,-10
N#CC1(c2nc3ccccc3s2)Cc2c(F)cccc2N2CCCC21 (stereo not given),5,7

# The list is partial; the hit share may differ from the screen's.
